# Compound activity from PubChem BioAssay.
# KCNQ2 pot = potentiators of rat KCNQ2 potassium channel; CHO-K1 KCNQ2, FluxOR thallium flux fluorescence; active compounds read high; B-score at 10 µM; O88943; actives 0.54% (n = 310,000);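 active = fluorescence ratio B-score at least 3 SD of library B-scores, with initial fluorescence B-score within 3 SD, cut at about 5.3 in these data; same plate scores as AID 2156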;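 also: B-score of peak minus minimum over baseline fluorescence ratio after K+ and Tl+ stimulus; positive B-score means potentiation of KCNQ2 with more thallium influx and brighter signal; only the inactives scoring about 0 or higher are listed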
# Target sequence (O88943 whole entry, looked up): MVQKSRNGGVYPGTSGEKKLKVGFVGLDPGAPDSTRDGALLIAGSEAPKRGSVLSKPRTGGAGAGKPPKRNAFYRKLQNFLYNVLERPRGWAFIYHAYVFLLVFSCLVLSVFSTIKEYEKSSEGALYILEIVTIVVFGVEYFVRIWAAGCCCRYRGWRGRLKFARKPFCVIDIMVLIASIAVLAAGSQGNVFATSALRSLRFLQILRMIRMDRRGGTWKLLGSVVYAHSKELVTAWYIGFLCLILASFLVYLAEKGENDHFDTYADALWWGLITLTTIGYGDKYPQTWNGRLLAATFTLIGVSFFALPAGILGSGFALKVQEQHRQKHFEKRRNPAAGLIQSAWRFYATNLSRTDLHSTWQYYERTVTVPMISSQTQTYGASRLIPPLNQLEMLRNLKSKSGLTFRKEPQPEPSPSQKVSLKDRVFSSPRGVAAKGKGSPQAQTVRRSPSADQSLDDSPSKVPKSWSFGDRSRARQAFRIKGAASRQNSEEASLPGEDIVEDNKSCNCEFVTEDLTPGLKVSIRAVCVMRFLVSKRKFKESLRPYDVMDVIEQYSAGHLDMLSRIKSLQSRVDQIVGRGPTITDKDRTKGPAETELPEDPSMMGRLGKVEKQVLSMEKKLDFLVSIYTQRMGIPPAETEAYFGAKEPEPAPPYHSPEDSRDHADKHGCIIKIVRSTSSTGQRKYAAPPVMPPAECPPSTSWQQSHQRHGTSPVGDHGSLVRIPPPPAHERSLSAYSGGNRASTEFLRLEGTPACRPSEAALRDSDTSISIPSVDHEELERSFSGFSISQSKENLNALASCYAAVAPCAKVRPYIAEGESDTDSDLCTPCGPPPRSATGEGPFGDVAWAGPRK
# KCNQ2 pot baseline = further read-out of KCNQ2 pot, marked with its call; B-score; compound at 10 µM; measured here: initial fluorescence intensity artifact check;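 brightness before thallium and not channel activity; 0 = typical well and far values either way flag optical interference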
# * marks the source's active call; other numbers are inactive results. The list is partial. The share of hits here may be higher or lower than overall.
SMILES,KCNQ2 pot,KCNQ2 pot baseline
Cc1cc(=O)cc(C)n1-c1ccccc1Br,2,-0.33
CC(=O)N1CCc2ccc(S(=O)(=O)N3CC(C)OC(C)C3)cc21 (centres undefined),0.47,-0.04
Cc1cc(=O)oc2c(C)c(OC3CCCCC3=O)ccc12 (centres undefined),0.74,1.4
CCOc1ccc(S(=O)(=O)N2CCCC(C(=O)NCc3ccccn3)C2)cc1Cl (centres undefined),0.8,0.38
Cc1c2cnn(CC(=O)Nc3c(F)c(F)cc(F)c3F)c(=O)c2c(C)n1Cc1ccccc1F,0.3,1.1
COc1ccc(OC)c(NC(=O)c2ccno2)c1,3.3,-0.85
CSc1nc2c(c(=O)[nH]1)C(c1ccc(F)cc1)CC(=O)N2 (centres undefined),0.31,1.1
O=C(NCc1nnc(SCC(=O)N2CCCC2)o1)c1ccco1,2.4,-1.1
CCOc1ccc(S(=O)(=O)N2CCN(C)CC2)cc1NC(=O)c1ccccc1F,0.44,-1
O=C(Cn1ccc2ccccc2c1=O)N1CCN(Cc2ccc3c(c2)OCO3)CC1,0.27,-1.7
CC12CCCCN1CCCc1c2[nH]c2ccccc12 (centres undefined),0.37,0.12
CCOC(=O)c1[nH]c2ccc(OC)cc2c1NC(=O)CCN1CCC(C)CC1,0.84,-1.4
Cc1ccc(S(=O)(=O)N2CCC(C(=O)OCC(=O)N3CCCC3=O)CC2)cc1C,0.22,0.49
COCCCN1CC(=O)N2C(c3cccc(OC)c3OC)c3[nH]c4ccccc4c3C[C@H]2C1=O (some centres undefined),0.19,0.33
COc1ccc(N=Nc2nc(-c3ccccc3)c(-c3ccccc3)[nH]2)cc1,0.43,-1.8
CC(C)C(=O)N1CCN(c2ccc(NC(=O)c3ccc4c(c3)OCCO4)cc2Cl)CC1,0.54,-1.1
CN(Cc1nc(-c2cccnc2)no1)S(=O)(=O)c1ccccc1,0.1,0.31
COc1ccc(-c2nc(CN3CCC(C(=O)NC4CCCC4)CC3)c(C)o2)cc1OC,1.8,0.69
CN(C)c1ccc(/C=[N+](\[O-])C(C)(C)/C=N/O)cc1,1.8,0.33
FC(F)(F)c1cccc(N2CCN(C(=S)NC3CCCC3)CC2)c1,0.27,1.3
CCN(CC)C(=O)Cn1cc(S(=O)(=O)CC(=O)Nc2cc(C)on2)c2ccccc21,0.62,-0.01
O=C(NCCc1cn2ccsc2n1)c1cccs1,0.08,0.25
CCCS(=O)(=O)NCc1ccc2c(c1)cc(C)n2C,1.4,-0.47
Cc1ccc(S(=O)(=O)N/N=C/C(C)(C)CO)cc1,1.9,-2.4
COc1ccccc1C(=O)NCC(=O)N/N=C/c1cc(Br)ccc1OC(=O)/C=C\c1ccco1,1.4,-0.27
Cc1ccc(-c2nc3sc(C(N)=O)c(N)c3c3c2CCCC3)cc1,0.77,-0.01
CN(C)c1ccc(/C=N/NC(=O)c2ccc(CN3CCOCC3)cc2)cc1Br,0.23,0.09
COCc1cc(=O)oc2cc(NS(=O)(=O)c3ccc(C)cc3)ccc12,0.73,-2.2
O=C(N/N=C/c1cccc(F)c1)c1csc2c1CCCC2,0.62,-1.8
CS(=O)(=O)N1CCC(c2noc(-c3ccc(C(F)(F)F)cc3)n2)CC1,0.04,-0.57
Cc1cc(C)cc(Oc2coc3cc(OC(=O)c4cccs4)ccc3c2=O)c1,0.1,-0.15
CO/N=C(\CS(=O)(=O)Cc1ccc(OC)cc1)c1ccc(Cl)cc1,1,1.1
Cc1cc(=O)nc2c3ccccc3n(CC(=O)NCCCN3CCCCC3C)n12 (centres undefined),1.1,0
COc1ccc(C(=O)NCC(=O)N/N=C(C)\C=C\c2ccccc2)cc1OC,0.01,-0.87
CCCc1nc(SCC(=O)c2ccccc2)c2c(=O)n(C)c(=O)n(C)c2n1,25*,-0.22*
CCC(=O)Nc1cccc(NC(=O)CSc2nc3c(c(=O)n(C)c(=O)n3C)n2C)c1,0.26,-1.3
Cc1ccc(Cn2c(=O)c3c(nc4n3CCCN4Cc3ccccc3)n(C)c2=O)cc1,0.04,1.9
C=CCOc1ccc(/C=C/C(=O)OCC(=O)NC2CCCCCCC2)cc1,0.1,-0.31
C[C@H](NC(=O)OCc1ccccc1)C(=O)NNC(=O)[C@H](C)NC(=O)OCc1ccccc1,0.78,-0.01
COCCCNC(=O)c1cccs1,1.9,0.88
CCC(C)c1ccccc1OCCCNC1CCCC1 (centres undefined),1.3,-0.07
CCCNc1c(NC(=O)c2ccc3c(c2)OCO3)c(=O)oc2ccccc12,0.33,1.5
CS(=O)(=O)N1CCCC(C(=O)NC2CCCCCCC2)C1 (centres undefined),0.03,-0.63
Cc1ccc(NC(=O)c2ccc(NCCCN3CCOCC3)c([N+](=O)[O-])c2)cc1Cl,0.14,0.67
CC1=NN(Cc2ccccc2)C(=O)C1,0.08,0.58
C=CCNC(=O)c1ccc(N(CC=C)S(C)(=O)=O)cc1,0.68,1.1
CCOC(=O)CSc1cc(=O)n(C)c2cc(Cl)ccc12,1.7,-0.05
Cc1ccc(S(=O)(=O)N(Cc2cc3ccccc3[nH]c2=O)c2cccc(C)c2)cc1,0.24,0.6
CN(C)c1ccc(-c2cccc(C3CC=CC4C3C(=O)N(Cc3ccccc3)C4c3ccc(C(F)(F)F)cc3)c2)cc1 (centres undefined),1.8,0.15
COc1ccc(CCNC(=O)C2CCCN2C(=O)Nc2ccc(Cl)cc2)cc1OC (centres undefined),1.5,0.12
O=C(O)c1c[nH]c2ccc(F)cc2c1=O,0.42,-0.34
CC1(NC(=O)Nc2cccc3ccccc23)CCS(=O)(=O)C1 (centres undefined),1.7,0.19
FC(F)(F)c1ccc(N=Cc2sc(N3CCOCC3)nc2-c2ccccc2)cc1,2.6,-0.38
CCCn1c(=N)n(CC(=O)c2ccc(Cl)c(Cl)c2)c2ccccc21,1.1,-0.25
CC1(C)CC(NC(=O)c2ccc(Cl)cc2Cl)CC(C)(C)N1,1.8,0.07
CCN1CCN(C(=O)Cn2cnc3sc(C)c(S(=O)(=O)N4CCN(c5ncccn5)CC4)c3c2=O)CC1,0.98,0.08
CCN1C(=O)[C@H]2[C@@H](c3ccc(C)cc3)N3C(=O)N(c4ccc(C(F)(F)F)cc4)C(=O)[C@@]3(Cc3ccccc3)[C@H]2C1=O,0.71,1.8
O=C(O)[C@@H]1CCCN1c1ncnc2sc3c(c12)CCC3,0.02,0.33
N#CCC(=O)Nc1ccc(C(F)(F)F)cc1N1CCOCC1,1.7,-0.92
Cc1ccc(-n2nc3c(c2NC(=O)c2ccc4c(c2)OCO4)CS(=O)C3)c(C)c1 (centres undefined),0.01,-0.14

# The list goes on:
SMILES,KCNQ2 pot,KCNQ2 pot baseline
Cc1cc(C)cc(N(CC(=O)N/N=C/c2ccncc2)S(=O)(=O)c2ccccc2)c1,0.62,-1.8
O=C(O)CSc1nnnn1-c1ccc2c(c1)OCCO2,1,-0.52
O=C(Nc1cccc(O)c1)C1CC(c2c(F)cccc2Cl)=NO1 (centres undefined),0.86,-0.96
CCCC(C(=O)NC1CCCC1)N(C(=O)Cn1nnc(-c2ccc(C)o2)n1)c1cccc(O)c1 (centres undefined),0.26,1.2
Cc1ccc(N2CCN(S(=O)(=O)N3CCOCC3)CC2)cc1C,0.42,-0.66
Nc1nc(SCCOc2ccccc2)n[nH]1,0.21,-0.22
COc1cc(COCC(O)CN2CCN(CCN3C(=O)c4cccc5cccc(c45)C3=O)CC2)cc(OC)c1OC (centres undefined),0.97,0.84
O=C1C2C3CCCC3=C3CCCC3C2C(=O)N1c1ccc(Cl)cc1 (centres undefined),1.3,-0.71
CCN(C(=O)CCc1nnc2ccc(NCc3ccco3)nn12)c1ccccc1,0.69,0.64
Cc1nnc(SCC(=O)N2CCN(S(=O)(=O)c3ccc(Cl)cc3)CC2)n(N)c1=O,0.12,0.43
CC(=O)NCCc1ccc(S(=O)(=O)N2CCCC2)cc1,0.75,0.94
CC(C)n1nc(C(=O)Oc2ccc(Cl)cc2)c2ccccc2c1=O,1.3,-0.39
CC(=O)Nc1c(-c2ccc3ccccc3c2)nc2ccccn12,0.92,0.04
Cc1ccc(/C(O)=C2/C(=O)C(=O)N(Cc3cccnc3)C2c2ccccn2)cc1 (centres undefined),1.5,2.3
c1ccc(-c2noc(-c3cccnc3)n2)cc1,0.16,-0.59
O=C(c1ncc[nH]1)c1cccs1,0.12,-1.7
O=C(CCNS(=O)(=O)c1ccc(Br)s1)N1CCCCC1,0.23,2
Cc1cc(=O)oc2cc(OCC3CC(c4ccc(N(C)C)cc4)=NO3)ccc12 (centres undefined),0.05,0.32
CC1Cc2ccccc2N1C(=O)COC(=O)c1ccc(Cl)nc1 (centres undefined),1.1,-0.38
Cc1c(C(=O)N2CCCCC2)sc(N)c1C#N,1.2,0.48
CSc1nc(-c2ccccc2)ccc1C(N)=O,0.94,-4.1
COc1ccc(CNCc2ccco2)cc1OCc1ccccc1,0.49,1.7
CCC(=O)N1CCc2cc(Br)cc(S(=O)(=O)Nc3c(C)n(C)n(-c4ccccc4)c3=O)c21,1.8,-0.92
O=C(CSc1nnc(NC(=O)c2ccco2)s1)Nc1ccccc1Br,0.63,0.92
CCc1nnc(N/N=C/c2c(Cl)cccc2Cl)n1N,2.1,-2.1
Cn1c(=O)n(C)c2cc(NS(=O)(=O)c3ccccc3)ccc21,0.46,-0.06
O=C(NN=C1c2ccccc2-c2ccccc21)c1ccccc1Br,2.2,-0.02
N#CCC(=O)NN=C1CCCCCCCCCCC1,1.3,-1
CCOc1ccc(NC(=S)N2CCC(c3nc4ccccc4[nH]3)CC2)cc1,0.02,-1.9
COc1ccccc1N1CCN(C2CCCCC2NS(=O)(=O)c2ccccc2)CC1 (centres undefined),0.37,-1.6
CC1(C)Cc2c(cnn2-c2ccc(F)cc2)C(NC(=O)CCc2ccncc2)C1 (centres undefined),0.65,1.4
COc1cccc(C2NC(=O)NC(C)=C2C(=O)OCC2CCCO2)c1 (centres undefined),0.25,0.15
CC1(C)Cc2c(sc(NC(=O)c3ccc4ncsc4c3)c2C(N)=O)C(C)(C)N1,1.4,0.42
COCC(C)n1c(C)cc(C(=O)Cn2c(=O)oc3ccccc32)c1C (centres undefined),0.88,0.88
COc1ccc(NC(=O)CSc2nc(=O)n(CCN3CCOCC3)c3c2CCC3)c(OC)c1,0.11,0.99
COc1ccc(S(=O)(=O)NC2CCCCCC2)cc1C(N)=O,1.2,1.6
CC(=O)Nc1ccc(S(=O)(=O)n2nc(C)cc2C)cc1,0.55,1.7
Cc1ccc(/C=C2\SC(=S)N(CCC(=O)N3CCOCC3)C2=O)cc1,1.6,0.98
Cc1ccc(NS(=O)(=O)c2cccc(C(=O)NN3CCOCC3)c2)cc1,0.1,0.63
CCOC(=O)N1CCC(NC(=O)CCC(=O)N2CCOc3ccc(C)cc32)CC1,1.2,-1
COc1ccccc1OCC(=O)Nc1cccc(S(=O)(=O)NC2=NCCCCC2)c1,2.1,-0.27
COC(=O)CSc1nc2ccc(NC(=O)CSc3nnnn3Cc3ccccc3)cc2s1,0.41,-1.4
CC1(C(=O)CSc2ncn[nH]2)CCC(=O)O1 (centres undefined),0.04,0.55
CN1CCN(C2CCN(c3cccc(Cl)c3)CC2)CC1CCO (centres undefined),0.16,-0.23
CC(=O)NN1C(=O)c2ccc(Oc3cccc([N+](=O)[O-])c3)cc2C1=O,1.8,-2.3
CN(CC(=O)Nc1c(Cl)cccc1Cl)C(=O)CCCN1C(=O)c2ccccc2C1=O,0.11,-0.69
O=C(COc1cccnc1[N+](=O)[O-])Nc1ccc(Cl)c(S(=O)(=O)N2CCOCC2)c1,1.2,-1.6
O=C(CCl)Nc1ccc(N2CCCCCC2)cc1,3.9,0.77

# Part of the list above, tab-delimited.
smiles	KCNQ2 pot	KCNQ2 pot baseline
Cc1cc(=O)cc(C)n1-c1ccccc1Br	2	-0.33
CC(=O)N1CCc2ccc(S(=O)(=O)N3CC(C)OC(C)C3)cc21 (centres undefined)	0.47	-0.04
Cc1cc(=O)oc2c(C)c(OC3CCCCC3=O)ccc12 (centres undefined)	0.74	1.4
CCOc1ccc(S(=O)(=O)N2CCCC(C(=O)NCc3ccccn3)C2)cc1Cl (centres undefined)	0.8	0.38
Cc1c2cnn(CC(=O)Nc3c(F)c(F)cc(F)c3F)c(=O)c2c(C)n1Cc1ccccc1F	0.3	1.1
COc1ccc(OC)c(NC(=O)c2ccno2)c1	3.3	-0.85
CSc1nc2c(c(=O)[nH]1)C(c1ccc(F)cc1)CC(=O)N2 (centres undefined)	0.31	1.1
O=C(NCc1nnc(SCC(=O)N2CCCC2)o1)c1ccco1	2.4	-1.1
CCOc1ccc(S(=O)(=O)N2CCN(C)CC2)cc1NC(=O)c1ccccc1F	0.44	-1
O=C(Cn1ccc2ccccc2c1=O)N1CCN(Cc2ccc3c(c2)OCO3)CC1	0.27	-1.7
CC12CCCCN1CCCc1c2[nH]c2ccccc12 (centres undefined)	0.37	0.12
CCOC(=O)c1[nH]c2ccc(OC)cc2c1NC(=O)CCN1CCC(C)CC1	0.84	-1.4
Cc1ccc(S(=O)(=O)N2CCC(C(=O)OCC(=O)N3CCCC3=O)CC2)cc1C	0.22	0.49
COCCCN1CC(=O)N2C(c3cccc(OC)c3OC)c3[nH]c4ccccc4c3C[C@H]2C1=O (some centres undefined)	0.19	0.33
COc1ccc(N=Nc2nc(-c3ccccc3)c(-c3ccccc3)[nH]2)cc1	0.43	-1.8
CC(C)C(=O)N1CCN(c2ccc(NC(=O)c3ccc4c(c3)OCCO4)cc2Cl)CC1	0.54	-1.1

# Further records
SMILES,KCNQ2 pot,KCNQ2 pot baseline
COc1ccccc1C(=O)Nc1ccc2c(c1)OCO2,0.09,0.81
CCOc1cc(NS(=O)(=O)c2ccc(NC(C)=O)cc2)c(OCC)cc1NC(=O)C(C)C,0.05,-1.2
Cc1cccc(OCC(=O)NCC2CCCO2)c1C (centres undefined),0.29,-0.01
CCOC(=O)Cc1c(C)c2c(O)cc(O)cc2oc1=O,0.07,-0.34
O=C(Cc1c[nH]c2ccccc12)OCC(=O)c1ccccc1,0.96,-0.01
